# Screens: PubChem BioAssay, several laboratories
# B2AR ag = human beta-2 adrenergic receptor agonism by FAP | P07550 | Am2.2-beta2AR cells, FAP receptor internalization, flow cytometry; reference of the scale not given here | response, % (test concentration not listed) | actives 0.43% (n = 340,000) | AID 504454;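 active means response above a set limit, near 3 SD of response in nonfluorescent compounds, cut at about 42% in these data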;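 further: stock transfer was 100 nL into about 11 µL; a reference agonist was the positive control; negative values mostly stem from fluorescent compounds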
# Target sequence (P07550 whole entry, looked up): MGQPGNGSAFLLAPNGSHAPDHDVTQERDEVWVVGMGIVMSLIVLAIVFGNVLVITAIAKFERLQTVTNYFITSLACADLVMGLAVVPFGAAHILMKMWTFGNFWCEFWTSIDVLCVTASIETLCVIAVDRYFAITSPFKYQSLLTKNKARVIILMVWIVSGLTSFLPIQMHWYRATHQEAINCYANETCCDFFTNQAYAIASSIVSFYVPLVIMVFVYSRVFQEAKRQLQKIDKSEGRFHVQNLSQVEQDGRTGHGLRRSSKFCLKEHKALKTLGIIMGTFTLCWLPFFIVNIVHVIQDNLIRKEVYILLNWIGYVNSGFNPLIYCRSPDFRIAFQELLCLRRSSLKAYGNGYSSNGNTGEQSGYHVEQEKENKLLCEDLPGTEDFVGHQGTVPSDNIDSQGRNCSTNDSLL
# Beta cell apopt = blocks beta cell apoptosis | protection from apoptosis, % (concentration not given with the values) | actives 0.8% (n = 300,000) | INS-1E cytokine-induced death, ATP luminescence, 48 h; percent of positive-control rescue, neutral wells zero;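 active means all replicates at 75% or more, or half of them and the mean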;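 further: 0% = cytokine-treated negative control wells and 100% = positive control rescue; higher means more ATP so stronger rescue from cytokine killing; wells of about 40 µL received 100 nL stock; the first replicate is given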
# ALR inh = inhibitors of human sulfhydryl oxidase ALR; P55789; purified ALR, DTT oxidation, H2O2 HRP-luminol luminescence; inhibition, % (no concentration beside the values); actives 3.8% (n = 290,000); AID 485317;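 active means mean and each replicate at 75% or more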;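 further: stock transfer was 7.5 nL into about 7.5 µL; 0% = neutral wells and 100% = wells with inactivated enzyme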
# Target sequence (P55789 whole entry, looked up): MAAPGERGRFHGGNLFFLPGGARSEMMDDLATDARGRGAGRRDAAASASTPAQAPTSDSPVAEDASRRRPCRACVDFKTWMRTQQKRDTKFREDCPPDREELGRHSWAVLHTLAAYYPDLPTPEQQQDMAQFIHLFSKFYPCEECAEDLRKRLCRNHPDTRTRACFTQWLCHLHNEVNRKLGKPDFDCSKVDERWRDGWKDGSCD
# T cruzi repl = T. cruzi replication inhibition | inhibition, % (test concentration not listed) | T. cruzi beta-gal in NIH3T3, luminescence, 90 h | actives 1.4% (n = 300,000);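 active means mean inhibition across valid replicates above about 55%, limit read from the data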;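 further: signal also drops with host cell toxicity which is not excluded here; 0% = plate median of DMSO wells and 100% = zero luminescence signal; higher percent means less beta-gal luminescence so fewer parasites; stock transfer was 50 nL into about 50 µL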
# Ecoli rRNA inh = selective bacterial rRNA inhibition in E. coli; E. coli WT GFP vs humanized-ribosome RFP mutants, fluorescence, 24 h; hits give low values; DMSO median 0, no signal -100; actives 1.6% (n = 350,000); GFP signal change (wild-type ribosome), % (concentration not given with the values);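 active means significant combined selectivity score with lowered wild-type GFP, culture density cut under 30%, mutant RFP and density less affected; inactive means any of these conditions unmet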; further: one replicate is shown; some compounds called inactive have numbers as strong as hits
# Calb FLC = C. albicans growth modulation with fluconazole; C. albicans CaCi-2 (fluconazole-resistant clinical isolate) + fluconazole, Alamar Blue growth, 48 h; AID 1979; growth inhibition, % (concentration not given with the values); actives 0.57% (n = 300,000);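 active means most replicates above 75%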;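 further: all wells also contain fluconazole at 8 µg/ml as a sub-toxic cotreatment; 0% = median of DMSO wells and 100% = median of geldanamycin control wells; wells of about 8 µL received 7.5 nL stock; the first replicate is given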
# LANA-H2A inh = blocks KSHV LANA binding to histone H2A/H2B | actives 0.6% (n = 320,000) | AID 2629 | cell-free LANA-H2A/H2B peptide, fluorescence polarization | inhibition, % (no concentration beside the values) | Q9QR71; in the data active means inhibition mostly above about 10%, no sharp cut-off; inactive means mostly below about 6.7%;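 further: stock transfer was 7.5 nL into about 10 µL; 0% = median of vehicle wells and 100% = median of positive control wells; one replicate is shown; the record names a cut of 25% in any replicate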
# Bfl-1 A1 inh = inhibitors of the anti-apoptotic protein A1, read as caspase activation; MEF A1-2A-BIM cells, Caspase-Glo 3/7 luminescence, 3 h; percent of clofoctol response, vehicle zero; caspase activation, % (concentration not given with the values); actives 0.066% (n = 330,000); AID 2462;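 active means over half of replicate activation scores above 10%, or exactly half above 10 with the replicate mean above 10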;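 further: wells of about 30 µL received 50 nL stock; many hits fall short of the cut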
# Ecoli rRNA inh OD600 = recorded beside Ecoli rRNA inh, whose call it bears; OD600 change, %; measured here: OD600 growth;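 optical density of the mix in the first replicate; 0 = DMSO median and -100 = no signal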
# Ecoli rRNA inh RFP = recorded beside Ecoli rRNA inh, whose call it bears; RFP signal change, %; measured here: RFP humanized mutant strains;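 first replicate; 0 = DMSO median and -100 = no signal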
# * hit, by the source's call; · = no result given. Not all compounds are listed. The share of hits here may be higher or lower than overall.
# A first look (2 entries):
1: C/C(=N\N=C1/NC(=O)C(C)S1)c1ccc([N+](=O)[O-])cc1 (configuration not stated)
2: Cc1ccc(S(=O)(=O)N2CCCC2C(=O)NC2CCCCC2)cc1 (configuration not stated)
Screen / compound no.	1	2
B2AR ag	0	-10
Beta cell apopt	-2	3
ALR inh	-14	-18
T cruzi repl	-3	6
Ecoli rRNA inh	·	·
Ecoli rRNA inh OD600	·	·
Ecoli rRNA inh RFP	·	·
Calb FLC	13	1
LANA-H2A inh	16*	-3.9
Bfl-1 A1 inh	-1.5	1.1

# The whole of this part, previewed entries included:
1: C/C(=N\N=C1/NC(=O)C(C)S1)c1ccc([N+](=O)[O-])cc1 (configuration not stated)
2: Cc1ccc(S(=O)(=O)N2CCCC2C(=O)NC2CCCCC2)cc1 (configuration not stated)
3: CCOC(=O)N1CCN(C(=O)c2cc3cc(Br)ccc3oc2=O)CC1
4: Cc1cc(C)n(S(=O)(=O)c2cc(C)c(C)cc2C)n1
5: CCOC(=O)CC(NS(=O)(=O)c1ccc(OC)c(C)c1)c1cccc([N+](=O)[O-])c1 (configuration not stated)
6: CCOc1cc(/C=N\NC(=O)c2ccc(NC(=O)C(C)(C)C)cc2)ccc1OC(=O)c1ccc(C)cc1
7: Cc1ccccc1CNc1nc(N)n(-c2ccccc2)n1
8: O=C(O)/C(=C/c1ccco1)NC(=O)c1ccc(Br)o1
Screen / compound no.	1	2	3	4	5	6	7	8
B2AR ag	0	-10	-12	1	-6	2	7	-3
Beta cell apopt	-2	3	-2	2	-10	8	-7	-11
ALR inh	-14	-18	3	-7	·	·	·	·
T cruzi repl	-3	6	-1	10	-2	39	-4	-15
Ecoli rRNA inh	·	·	2	·	3	·	12	9
Ecoli rRNA inh OD600	·	·	9	·	3	·	18	16
Ecoli rRNA inh RFP	·	·	-1.6	·	0.1	·	0.2	7.1
Calb FLC	13	1	7	-15	6	2	-1	-3
LANA-H2A inh	16*	-3.9	0.6	-0.9	-4.5	-0.4	2.4	-5.1
Bfl-1 A1 inh	-1.5	1.1	-0.4	-0.6	0.0	0.6	-0.4	-0.2

9: COCCN1C(=O)C(=O)/C(=C(/O)c2ccc(S(=O)(=O)N3CCOCC3)cc2)C1c1ccc(OC)c(OC)c1 (configuration not stated)
10: COc1cccc(/C=C/C(=O)OCC(=O)N2CCCc3ccccc32)c1
11: CC(C)CC(=O)NC(=S)Nc1nc(-c2ccccc2)cs1
12: CN(C(=O)C1CCC(=O)N(Cc2ccccc2F)C1)C1CCOCC1 (configuration not stated)
13: Oc1ccc(C[C@@H]2CNCCN2CCC23CC4CC(CC(C4)C2)C3)cc1
14: CCNNC(=O)C(O)(c1cccc(C)c1)c1cccc(C)c1
15: CCn1ncc([N+](=O)[O-])c1C(=O)Nc1c(C)nn(Cc2ccc(F)cc2)c1C
16: Cc1ccc(-n2c(C)nnc2SCC(=O)N2CCc3ccccc3C2)cc1
Screen / compound no.	9	10	11	12	13	14	15	16
B2AR ag	-1	-3	0	0	24	-4	17	-15
Beta cell apopt	·	2	-7	2	-3	·	-3	-2
ALR inh	-3	-6	-18	-1	15	1	·	0
T cruzi repl	-19	-2	3	-13	41	-7	0	8
Ecoli rRNA inh	5	-39	·	3	-51	·	2	-5
Ecoli rRNA inh OD600	3	-41	·	6	-76	·	4	-7
Ecoli rRNA inh RFP	-1.6	-8.4	·	-0.4	-22	·	-1.9	-4.1
Calb FLC	4	0	5	3	-1	8	3	-9
LANA-H2A inh	-1.1	-2.9	1.5	2.3	-0.1	-1.5	-3.1	1.2
Bfl-1 A1 inh	-0.5	0.2	-0.7	2.8	0.5	0.8	1.2	-0.8

17: Cc1cc(NC(=O)CSc2c[nH]c3ccccc23)no1
18: O=C(Cc1cccs1)N1CCN=C1SCc1ccc(F)cc1
19: CCOc1ccc(N=Nc2c(=O)[nH]n3c(=O)c4c([nH]c23)CCCC4)cc1
20: Nc1cc(Cl)ccc1N1CCOCC1
21: Cc1cccc(-n2cnc3cc(C(=O)N4CCc5ccccc54)ccc32)c1
22: Cc1cccc(NC(=O)c2ccccc2NC(=O)c2ccco2)c1
23: CC(C)(C)c1ccc(C(=O)NCc2nnc(SCC(=O)NCC3CCCO3)o2)cc1 (configuration not stated)
24: CCOc1ccc(NC(=O)CSc2nc3ccccc3c(=O)n2CCCC(=O)NCC2CCCO2)cc1 (configuration not stated)
Screen / compound no.	17	18	19	20	21	22	23	24
B2AR ag	-1	-7	7	-3	-8	3	-10	-1
Beta cell apopt	-7	-14	-5	-4	-2	2	1	1
ALR inh	99*	22	68	6	-6	4	21	-2
T cruzi repl	-4	-5	-3	-9	-2	0	1	11
Ecoli rRNA inh	8	-3	·	·	·	15	-2	-1
Ecoli rRNA inh OD600	5	6	·	·	·	8	-2	6
Ecoli rRNA inh RFP	1.6	-0.1	·	·	·	1.9	2.7	-4.2
Calb FLC	-2	0	-4	3	53	5	4	-1
LANA-H2A inh	1.2	-1.4	-1.2	-0.4	-2.5	-4.4	-1.6	-3.0
Bfl-1 A1 inh	-0.2	0.2	1.7	2.1	-0.8	0.8	2.0	0.1

25: CCOC(=O)c1nn(-c2ccccc2Cl)c(=O)cc1OCC(=O)Nc1cccc(OC)c1
26: CCOC(=O)C1=C(C)N=C2SC(C)C(=O)N2C1/C=C/c1ccccc1OC (configuration not stated)
27: CCN(CC)C1CCN(C(=O)c2cc(COc3ccc(F)cc3Cl)on2)C1 (configuration not stated)
28: CCOC(=O)CSc1nc(N)c(C#N)cc1C#N
29: O=C(Nc1ccccc1)c1ccc(NCC2CCCO2)c([N+](=O)[O-])c1 (configuration not stated)
30: CCCc1nnc(SCC(=O)N2CCOCC2)n1CC1CCCO1 (configuration not stated)
31: O=C(COC(=O)CCc1ccccc1)Nc1ccccc1OC(F)F
32: CCC(C)/C(C)=N/NC(=O)c1ccc(CSc2nc3ccccc3s2)cc1 (configuration not stated)
Screen / compound no.	25	26	27	28	29	30	31	32
B2AR ag	4	-3	-3	3	4	-2	10	0
Beta cell apopt	5	-5	-6	-18	1	-2	-4	0
ALR inh	·	-2	·	-4	-2	-15	-2	42
T cruzi repl	-8	-9	46	-18	-2	-17	-11	-3
Ecoli rRNA inh	8	·	1	0	·	14	7	0
Ecoli rRNA inh OD600	16	·	2	-1	·	20	-2	2
Ecoli rRNA inh RFP	-2.8	·	-5.9	-2.9	·	1.3	1.6	-2.2
Calb FLC	-1	11	5	15	1	0	-4	1
LANA-H2A inh	·	4.3	-0.5	-4.3	-1.1	0.0	1.1	-4.8
Bfl-1 A1 inh	0.4	0.1	0.3	0.0	-0.2	-0.1	0.9	-0.5

# Whole records from above. Order of values: B2AR ag | Beta cell apopt | ALR inh | T cruzi repl | Ecoli rRNA inh | Ecoli rRNA inh OD600 | Ecoli rRNA inh RFP | Calb FLC | LANA-H2A inh | Bfl-1 A1 inh
# `Cc1ccc(-n2c(C)nnc2SCC(=O)N2CCc3ccccc3C2)cc1` is listed as -15 | -2 | 0 | 8 | -5 | -7 | -4.1 | -9 | 1.2 | -0.8
# `Oc1ccc(C[C@@H]2CNCCN2CCC23CC4CC(CC(C4)C2)C3)cc1` is listed as 24 | -3 | 15 | 41 | -51 | -76 | -22 | -1 | -0.1 | 0.5

# The list continues.
33: O=C(NC1CCCCC1)c1ccc(-c2ccc(Cl)cc2)o1
34: C/C(=N\OCC(=O)Nn1c(C)nc2ccccc2c1=O)c1cccs1
35: Cc1ccc(C(C(=O)NC2CCCC2)N2CCc3ccccc32)cc1 (configuration not stated)
36: O=C(CN1CCN(Cc2ccccc2Cl)CC1)N=Nc1c(O)[nH]c2ccccc12
37: CCCCCN=Cc1c(C)[nH]n(-c2nc3ccccc3s2)c1=O
38: CC1(C2CC2)NC(=O)N(CC(=O)NCc2ccc(Cl)cc2Cl)C1=O (configuration not stated)
39: COc1ccccc1NCCC(=O)OCC(=O)Nc1cccc(S(=O)(=O)N(C)C)c1
40: COc1ccc(CN2CCN(c3ncccn3)CC2)c(C)c1C
Screen / compound no.	33	34	35	36	37	38	39	40
B2AR ag	16	-5	4	-28	-22	2	2	7
Beta cell apopt	·	2	-1	5	90*	-1	-7	-5
ALR inh	·	-9	-13	-9	·	-14	·	·
T cruzi repl	3	2	15	12	8	·	·	-10
Ecoli rRNA inh	-16	-17	8	-3	-20	0	-1	-7
Ecoli rRNA inh OD600	-15	-12	3	-11	-34	3	-9	-2
Ecoli rRNA inh RFP	-0.1	2.8	9.7	-4.3	10	-1.0	-0.6	-3.7
Calb FLC	-1	-2	0	3	5	·	·	-2
LANA-H2A inh	0.3	1.0	-3.0	-6.4	8.2	-2.3	4.9	-5.3
Bfl-1 A1 inh	0.3	-0.6	0.5	0.4	1.1	0.2	-0.4	0.0

41: Cc1c(/C=N/NC(=O)c2ccc(Br)o2)cnn1C
42: Cc1ccc(-c2nnc(SCC(=O)N/N=C/c3ccccc3C(=O)O)n2-c2ccc(C)cc2)cc1
43: CC(C)CN1C(=O)c2ccc(C(=O)Nc3ccc(OCC(=O)O)cc3)cc2C1=O
44: CCC(=O)NC(=S)Nc1ccc(NC(=O)c2ccco2)c(Cl)c1
Screen / compound no.	41	42	43	44
B2AR ag	-5	6	-11	-5
Beta cell apopt	-5	-4	-3	1
ALR inh	20	-1	-5	-18
T cruzi repl	12	1	-2	-16
Ecoli rRNA inh	4	5	12	5
Ecoli rRNA inh OD600	4	-6	10	-2
Ecoli rRNA inh RFP	-4.6	-5.5	2.2	3.7
Calb FLC	3	1	-1	8
LANA-H2A inh	13	-6.8	0.0	0.8
Bfl-1 A1 inh	1.7	0.4	2.0	-3.8

# Given with bars between the fields: part of the list above.
cpd | SMILES | B2AR ag | Beta cell apopt | ALR inh | T cruzi repl | Ecoli rRNA inh | Ecoli rRNA inh OD600 | Ecoli rRNA inh RFP | Calb FLC | LANA-H2A inh | Bfl-1 A1 inh
42 | Cc1ccc(-c2nnc(SCC(=O)N/N=C/c3ccccc3C(=O)O)n2-c2ccc(C)cc2)cc1 | 6 | -4 | -1 | 1 | 5 | -6 | -5.5 | 1 | -6.8 | 0.4
43 | CC(C)CN1C(=O)c2ccc(C(=O)Nc3ccc(OCC(=O)O)cc3)cc2C1=O | -11 | -3 | -5 | -2 | 12 | 10 | 2.2 | -1 | 0.0 | 2.0
